FEN1 inhibitor = blocks human flap endonuclease 1 | 390,000 compounds, 0.35% hits | P39748 | AID 588795 | Potency, µM (series often up to 114 µM), inactives show top-dose activity change, negative = inhibition, actives largely listed as inhibitors | Recombinant FEN1 flap cleavage, fluorescence, 15 min; further: nearly all actives have a fitted effect of over 65% in size
Target sequence (P39748 whole entry, looked up): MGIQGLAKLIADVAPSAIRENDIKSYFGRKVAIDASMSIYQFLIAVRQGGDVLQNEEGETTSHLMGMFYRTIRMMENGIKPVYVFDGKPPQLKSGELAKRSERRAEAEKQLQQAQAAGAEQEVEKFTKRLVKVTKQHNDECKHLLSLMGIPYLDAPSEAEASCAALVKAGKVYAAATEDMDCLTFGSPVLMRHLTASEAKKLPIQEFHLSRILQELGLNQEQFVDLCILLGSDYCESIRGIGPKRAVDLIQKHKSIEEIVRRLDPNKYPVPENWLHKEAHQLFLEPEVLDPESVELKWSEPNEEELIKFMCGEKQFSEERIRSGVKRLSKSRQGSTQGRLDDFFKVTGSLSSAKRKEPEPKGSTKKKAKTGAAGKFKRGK
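Nuclease activity of 10 nM FEN1 was measured after 15 min of room-temperature exposure to titrated compounds, by adding 50 nM flap substrate and reading plates at 0 and 15 min.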
TDP1 cell CPT = growth inhibition of DT40 Tdp1-/-;hTDP1 cells with camptothecin (screen for TDP1 inhibitors); 420,000 compounds, 12% hits; chicken DT40 Tdp1-/-;hTDP1 cells + 20 nM CPT, ATP luminescence, 48 h; Potency, µM (series often up to 46.2 µM), without a hit: at the highest dose activity change, negative = growth inhibition, hits mostly inhibitors; further: nearly all actives have a fitted effect of over 55% in size
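Chicken DT40 Tdp1-/- cells stably complemented with human TDP1 were seeded at 400 cells/well in medium containing 20 nM camptothecin, exposed to pin-transferred compounds, and grown at 37 °C for at least 48 hr. Viability was read as ATP luminescence.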
The depositor's hits bear a star; ? = inconclusive; · = not tested or not shown; & = joins results of further samples; [ ] = dose if it differs, or a comment. The call rests on the fitted dose curve; in most records, active means well fitted curve in the direction sought with a large enough effect; inconclusive means small, poorly fitted or top-dose-only effect, or another doubt; inactive means no such curve, though single readings can be large; an effect the other way counts as inactive or inconclusive. On the % scale 0 is the no-effect control and ±100 the full control effect; potency means the concentration at half of the fitted maximal effect.

SMILES	FEN1 inhibitor	TDP1 cell CPT
COC(c1ccccc1)c1nnc(CCC(=O)NCc2ccc3ncccc3c2)o1 (stereo not given)	9%	0%
CC(C)(C)NC(=O)c1ccc(NC(=O)C2COc3ccccc3O2)cc1 (stereo not given)	1%	-19%
CN(C)CC(=O)N1c2ccccc2Sc2ccc(Cl)cc21	-9%	-20%
N#Cc1c(NC(=O)C2C3C=CC(C3)C2C(=O)O)sc2c1CCCCC2 (stereo not given)	10%	?
CN(C(=O)CNC(=O)c1ccc(Br)o1)C1CCCCC1	-6%	16%
COc1ccc(OC)c(-c2nc(C(N)=O)c3c(n2)n(-c2ccc4c(c2)OCO4)c(=O)n3C)c1	-6%	·
COCCCn1c(-c2ccc(S(=O)(=O)N3CCOCC3)cc2)csc1=Nc1ccccc1	2%&4%	18µM*
COC(=O)c1cc2oc3ccccc3c2n1Cc1nc(-c2ccc(OC)cc2)oc1C	-6%	?
CCC(Sc1nnc2c3ccccc3n(CC)c2n1)C(=O)Nc1nnc(C(C)C)s1 (stereo not given)	16%	?
CC(NC(=O)COC(=O)C1(C)CC1(Cl)Cl)c1ccccc1 (stereo not given)	8%	-15%
Cc1ccc2c(c1)C1CN(C)CCC1N2C(=O)c1ccccc1NS(=O)(=O)c1ccc(F)cc1 (stereo not given)	12%	-26%
CCOC(=O)Cc1[nH]nc2c1C(c1cc(OC)ccc1OC)C(C#N)=C(N)O2 (stereo not given)	-2%	-11%
CCN(CC)S(=O)(=O)c1cccc(C(=O)Oc2cccc(NC(=O)c3cccs3)c2)c1	-14%	?
CC(C)CCN1CCN(Cc2cccn2-c2cccnc2)CC1CCO (stereo not given)	-3%	6%
O=C(NC(Cc1ccccc1)C(=O)N1CCCC(C(F)(F)F)C1)c1ccccc1 (stereo not given)	-8%	-9%
CCn1cc(CN2CCC(n3nccc3NC(=O)Cc3ccccc3)CC2)cn1	0%	3%
O=c1oc(CCO)cc2ccc(-c3ccc4[nH]ccc4c3)cc12	-13%	5%
CCOc1ccccc1OCCOCCOc1c(Cl)cccc1Cl	-13%	?
COc1cccc(NC(=O)c2ccc(Cn3cc([N+](=O)[O-])cn3)o2)c1	-10%	-21%
O=S(=O)(c1ccc(Cl)s1)N1CCC2(CC1)OCCO2	5%	7%

An excerpt from above in order of heavy-atom count, high to low:
SMILES	FEN1 inhibitor	TDP1 cell CPT
CCC(Sc1nnc2c3ccccc3n(CC)c2n1)C(=O)Nc1nnc(C(C)C)s1 (stereo not given)	16%	?
CCn1cc(CN2CCC(n3nccc3NC(=O)Cc3ccccc3)CC2)cn1	0%	3%
CCOC(=O)Cc1[nH]nc2c1C(c1cc(OC)ccc1OC)C(C#N)=C(N)O2 (stereo not given)	-2%	-11%
CC(C)CCN1CCN(Cc2cccn2-c2cccnc2)CC1CCO (stereo not given)	-3%	6%
COc1cccc(NC(=O)c2ccc(Cn3cc([N+](=O)[O-])cn3)o2)c1	-10%	-21%
CCOc1ccccc1OCCOCCOc1c(Cl)cccc1Cl	-13%	?
CN(C)CC(=O)N1c2ccccc2Sc2ccc(Cl)cc21	-9%	-20%

Next structures follow.
SMILES	FEN1 inhibitor	TDP1 cell CPT
Clc1ccc(C2=NCCN2)cc1	20%	-1%
CCCCCCCNC(=O)CN1N=C(c2ccc(C)cc2)CCC1=O	10%	-23%
O=C(CNC(=O)c1cncc(Br)c1)Nc1ccc(F)c(F)c1F	14%	18%
O=C1CCCCC1Sc1nnc(Nc2ccccc2)s1 (stereo not given)	-2%	-21%
COc1cc2c(cc1OC)C[N+](C)(C)CC2	20%	-2%
CCSc1nc(NCCN(C)C)c2c3c(sc2n1)COC(C)(CC)C3 (stereo not given)	-12%	21µM*
CC1(C)OC(C)(C)/C(=C\c2ccccc2[N+](=O)[O-])C1=O	1%	-3%
CCCCn1c(=O)n(CC(=O)NCc2ccc(C)cc2)c(=O)c2c1nc(CO)n2CCC	-15%	-26%
CC(=O)Nc1ccn(-c2ccccc2)n1	6%	5%
COC(=O)C(O)(CC(=O)Nc1ccc(C)c(F)c1)C(F)(F)F (stereo not given)	-5%	-16%
OCCNCc1c(OCc2ccc(Cl)cc2)ccc2ccccc12	-4%	18µM*
CCC1Oc2ccccc2N(CC(=O)NCCCN2CCCCC2CC)C1=O (stereo not given)	3%	2%
Cc1cccc(C(=O)NCC(=O)OCc2cc(=O)n3nc(CC(C)C)sc3n2)c1	-1%	-15%
CC1CCCCC12NC(=O)N(CC(=O)NC(=O)NCc1ccco1)C2=O (stereo not given)	41%[activator]	-11%
Cc1noc(C)c1NC(=O)N(C)C[C@H]1Oc2ccc(NC(=O)Nc3ccc(C(F)(F)F)cc3)cc2C(=O)N([C@H](C)CO)C[C@@H]1C	2%	-8%
CS(=O)(=O)N1CCC(C(=O)Nc2cccc(F)c2)CC1	-3%	0%
CC(=O)Nc1ccc(CN2CCCC(C(=O)c3cccc(C(F)(F)F)c3)C2)cc1 (stereo not given)	-8%	-20%
Cn1c2c(c3cc([N+](=O)[O-])ccc31)CCCC2	8%	-2%
COc1ccc(CNC(=O)CCc2c(C)nn(-c3ccc(N4CCCC4)nn3)c2C)c(OC)c1	-3%	0%
COc1ccc(OCCCSc2ncccn2)cc1	-10%	-22%
CC(C)CC(=O)Nc1ccc(C(=O)OCc2cc(=O)n3nc(C(C)C)sc3n2)cc1	23%	-29%
Cn1cnnc1SCC(=O)Nc1ccc(S(=O)(=O)N2CCOCC2)cc1	6%	19%
CCOC(=O)c1c(C)[nH]c(N=Nc2cccc(OC)c2)c1C	-14%	-5%
CC(=O)c1c(C(C)=O)c(C)n(-c2ccc3ncccc3c2)c1C	4%	-15%
Cc1cc(NC(=O)CN2CCCCCCC2)no1	0%	8%
COc1ccccc1-c1nnc(SCC(=O)Nc2ccc(N3CCOCC3)cc2)n1C	4%	5%
CC(C)n1c(-c2cccnc2)nc2cnccc21	-13%	?
Cc1nnnn1/C(=C\c1ccccc1)C(=O)OCC(=O)Nc1cccc(S(=O)(=O)N(C)C)c1	8%	10µM*
COC(=O)c1ccc(OCc2nc(N)nc(N3CCOCC3)n2)cc1	-5%	1%
COc1ccc2c(c1)[nH]c1c(=O)n(CCN(C)C)cnc12	-7%	-5%
CCOC(=O)Cn1cnc2c(nnn2-c2ccc(OC)cc2)c1=O	-20%	-7%
CCc1cccc2c(C#N)cn(CC(=O)NCc3ccco3)c12	-1%	-18%
CCCc1cc(=O)c2ccc(OCC(C)=O)cc2o1	7%	-2%
CC(C)C(=O)N1CCC(CN=CC2=C(O)CC(C)(C)CC2=O)CC1	-2%	-9%
O=C(NCCCN1CCN(c2ccc(F)cc2)CC1)C1CCCN(c2ncnc3c2nc2n3CCCCC2)C1 (stereo not given)	-4%	?
OC(CNC1Cc2ccccc2C1)COc1ccc(F)cc1 (stereo not given)	11%	-3%
COc1cc(C(=O)Nc2sc3c(c2C#N)CCN(C(C)=O)C3)cc(OC)c1OC	4%	?
CCOC(=O)c1cccc(NC(=O)CSc2nnc(CNc3ccc(C)cc3)n2CC)c1	-8%	?
COC(=O)c1cn(NC(=O)c2ccc(OC)c([N+](=O)[O-])c2)c(=O)c2ccccc12	-3%	-2%
CCOc1ccc(S(=O)(=O)NCc2ccccn2)c(C)c1C	-6%	23µM*
COc1ccc(-c2csc(N3CCSCC3)n2)cc1	-26%	-5%
C/C(=N\N1CCN(Cc2ccccc2)CC1)c1ccco1	17%	0%
O=C(CN1CCOCC1)Nc1nc(-c2ccccc2)cs1	-1%	-11%
COc1ccc(S(=O)(=O)c2cn(Cc3ccccc3)c3cc(F)c(F)cc3c2=O)cc1	-1%	15µM*
CCOc1ccc(Cn2nnc(C(=O)Nc3cc(C)cc(C)c3)c2N)cc1	5%	-2%
COC(=O)C(/C=N/OCc1ccc([N+](=O)[O-])cc1)NC(=O)c1cccc(Cl)c1 (stereo not given)	-9%	-1%
O=C(CSc1nc(-c2ccccc2)c(-c2ccccc2)o1)Nc1nncs1	1%	?
COc1ccc(-c2cccc(C(=O)Nc3cccc(C(=O)O)c3)c2)cc1	6%	-6%
Cc1ccc2c(COC(=O)c3ccccc3OC(F)F)cc(=O)oc2c1	11%	-11%
CN(c1ccccc1)S(=O)(=O)c1cccc(NC(=O)Nc2ccc(Cl)cc2C#N)c1	-3%	?
COc1ccc(N2CCN(C(c3ccc4ncccc4c3)c3nnnn3C(C)C)CC2)cc1 (stereo not given)	-6%	-14%
Cc1ccc(NC(=O)CN(C)C(=O)Cc2ccccc2F)cc1	-12%	-1%
COc1ccc(NC(=O)COC(=O)C(CC(C)C)N2C(=O)C3CC=CCC3C2=O)cc1Cl (stereo not given)	-3%	10%
Cc1oc2ncn(C)c(=O)c2c1C(=O)N1CCN(c2ccc(Cl)cc2)CC1	-3%	5%
CCOC(=O)c1nn(-c2ccc(Cl)cc2)c2nnc(Cc3ccccc3)c(=O)n12	1%	1%
CSc1nncn1/N=C/c1ccccc1F	2%	-16%
Cc1nc(NC(=O)C2CCCCC2)sc1C	-13%	-3%
COC(=O)CN(c1cc(OC)ccc1OC)S(=O)(=O)c1ccc(OC)c(OC)c1	-4%	-6%
CC(NC(=O)c1ccccc1SCC(=O)N1CCCC1)c1ccccc1 (stereo not given)	3%	-8%
COc1ccc(-c2csc3ncnc(N4CCN(c5ccccc5OC)CC4)c23)cc1	-22%	?

Next entries.
SMILES	FEN1 inhibitor	TDP1 cell CPT
Cc1ccccc1NC(=O)NC1CCCc2ccccc21 (stereo not given)	16%	-29%
COc1ccc(CCNC(=O)C(=O)NN=C2CCCCCCC2)cc1OC	-6%	8%
O=C(CSc1nnnn1-c1ccc(F)cc1)Nc1ccc(N2CCOCC2)c(Cl)c1	-12%	15µM*
O=[N+]1C2=C(CCCC2)N([O-])C12CCCC2	6%	-26%
CCOc1ccccc1NC(=O)C1CCN(S(=O)(=O)c2ccc(Br)cc2)CC1	-3%	?
O=C(CN1CCCCC1)Nc1cc(S(=O)(=O)N2CCOCC2)ccc1N1CCCC1	-1%	-19%
Cc1ccc2cc(CCNC(=O)c3ccc(S(=O)(=O)N4CCOCC4)cc3)c(=O)[nH]c2c1	-3%	?
CCOC(=O)c1sc(=S)n(C)c1NC(=O)c1ccc(F)cc1	-6%	?
COc1ccc(C(=O)NCCNC(=O)c2ccccn2)cc1	6%	-1%
Cc1cc(N=Nc2ccc(Cl)cc2)cc(CN2CCOCC2)c1O	1%	?
O=C(Cn1nnnc1-c1ccccc1F)Nc1ccc(F)c(F)c1	-5%	-27%
COc1cc(C(CC(=O)NCc2ccccc2)N2Cc3ccccc3C2=O)cc(OC)c1OC (stereo not given)	14%	-21%
COc1ccccc1Nc1nc(-c2ccccc2)c(CC(=O)O)s1	2%	-1%
Cc1ccc(NC(=S)NCC2CCCO2)cc1 (stereo not given)	7%	-3%
Cc1ccc(O)c(NC(=O)c2onc(C)c2Cl)c1	-6%	-7%
Cc1cc(OCC(=O)N2CCN(c3ncccn3)CC2)ccc1Cl	0%	-26%
Cc1cc(N2CCN(C)CC2)nc2ccc(NC(=O)CCC(=O)NCCC(C)C)cc12	3%	-3%
COc1ccc(NC(=O)c2cc(-c3ccc4c(c3)OCO4)on2)cc1OC	-6%	-4%
O=C1C2C3C=CC(C2C(=O)N1c1cccc(O)c1)C1C2C(=O)N(c4cccc(O)c4)C(=O)C2C31 (stereo not given)	1%	2%
O=C(Cc1c(F)cccc1Cl)N1CCN(S(=O)(=O)c2cccc(F)c2)CC1	-8%	8%
COc1ccc(N2CC(C(=O)Nc3nc4ccc(OC)cc4s3)CC2=O)cc1 (stereo not given)	-13%	-3%
CCOc1ccc(NC(=O)COC(=O)C23CC4CC(CC(C4)C2)C3)c([N+](=O)[O-])c1	-9%	18µM*
O=C(CSc1nc2ccccc2o1)N1CCCC1	-3%	-3%
COc1ccc(C(=O)NC2CCN(S(=O)(=O)c3ccc(F)cc3)CC2)cc1	-6%	0%
CCc1c(C)nc(SCC(=O)N2CCCCC2C)[nH]c1=O (stereo not given)	1%	-1%
Cc1ccc(C(C)C)c(OCCN2C(=O)NC(C)(C)C2=O)c1	-6%	-16%
Cc1ccc(Cl)cc1N1CCN(C(=O)C2CCC(=O)N2C(C)C)CC1 (stereo not given)	22%	-3%
COC(=O)CCSCC(=O)N1N=C(c2ccc(Br)cc2)CC1c1cccc(OC)c1OC (stereo not given)	-10%	?
O=C(Nc1nccs1)C1CCN(S(=O)(=O)c2ccc3c(c2)OCCCO3)CC1	12%	-5%
Cc1cc2ncc(C(=O)Nc3ccsc3C(=O)O)c(C)n2n1	-5%	13%
COc1ccc(C2C(C#N)=C(N)Oc3cc(C)[nH]c(=O)c32)c(OC)c1OC (stereo not given)	-8%	-4%
Cc1nn(C)c2c1c(C(F)(F)F)cc(=O)n2CC(=O)Nc1ccc(F)cc1F	11%	?

Reformatted as labelled records: three of the compounds above
CC(=O)Nc1ccn(-c2ccccc2)n1
  FEN1 inhibitor = 6%
  TDP1 cell CPT = 5%
Cc1ccc(C(C)C)c(OCCN2C(=O)NC(C)(C)C2=O)c1
  FEN1 inhibitor = -6%
  TDP1 cell CPT = -16%
O=S(=O)(c1ccc(Cl)s1)N1CCC2(CC1)OCCO2
  FEN1 inhibitor = 5%
  TDP1 cell CPT = 7%

Some of the compounds tested; most or all hits stand in other tables.
